Source: PubChem
AF4-AF9 inh: blocks AF4 peptide binding to human AF9. inhibition, % at 10 µM. 350,000 tested, 0.47% active. AlphaScreen, biotin-AF4 peptide binding to FLAG-AF9. P42568;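 active means every replicate reaching a set inhibition limit, whatever the replicate mean, cut at about 25% in these data; inconclusive means mean inhibition reaches that limit but some replicates miss it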;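 further: 0% = plate neutral control median and 100% = total signal loss; the record names both 10 and 1 µM as test concentration; the first replicate is given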
Target sequence (P42568 whole entry, looked up): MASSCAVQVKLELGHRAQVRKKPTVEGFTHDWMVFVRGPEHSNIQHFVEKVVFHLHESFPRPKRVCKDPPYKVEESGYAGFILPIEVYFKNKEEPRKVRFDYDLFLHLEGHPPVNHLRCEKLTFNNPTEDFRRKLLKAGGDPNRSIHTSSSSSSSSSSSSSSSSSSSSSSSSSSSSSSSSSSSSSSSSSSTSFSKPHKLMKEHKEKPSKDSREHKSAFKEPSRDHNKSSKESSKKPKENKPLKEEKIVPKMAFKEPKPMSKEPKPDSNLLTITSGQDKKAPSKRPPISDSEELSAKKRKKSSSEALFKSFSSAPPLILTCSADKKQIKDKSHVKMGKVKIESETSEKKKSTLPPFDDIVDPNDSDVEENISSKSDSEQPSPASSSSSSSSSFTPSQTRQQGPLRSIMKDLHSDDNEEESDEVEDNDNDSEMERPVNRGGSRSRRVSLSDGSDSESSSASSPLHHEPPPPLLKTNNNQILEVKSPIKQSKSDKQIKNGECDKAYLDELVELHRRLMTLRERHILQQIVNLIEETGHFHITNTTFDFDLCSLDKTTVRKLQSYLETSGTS
HNF4A DNA FP: change in binding of human HNF4 alpha to DNA; HNF4a-FITC DNA binding, fluorescence polarization, 1 h; activity change, % at 10 µM; P41235; 360,000 tested, 0.3% active; in the data active means activity change above about 30%, passing the limit was not always enough;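 further: controls were the assay level and a saturating level of protein; the project sought stronger binding though the title names inhibitors; some compounds called inactive have numbers as strong as hits; positive values seem to mean higher polarization but the record does not say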
Target sequence (P41235 whole entry, looked up): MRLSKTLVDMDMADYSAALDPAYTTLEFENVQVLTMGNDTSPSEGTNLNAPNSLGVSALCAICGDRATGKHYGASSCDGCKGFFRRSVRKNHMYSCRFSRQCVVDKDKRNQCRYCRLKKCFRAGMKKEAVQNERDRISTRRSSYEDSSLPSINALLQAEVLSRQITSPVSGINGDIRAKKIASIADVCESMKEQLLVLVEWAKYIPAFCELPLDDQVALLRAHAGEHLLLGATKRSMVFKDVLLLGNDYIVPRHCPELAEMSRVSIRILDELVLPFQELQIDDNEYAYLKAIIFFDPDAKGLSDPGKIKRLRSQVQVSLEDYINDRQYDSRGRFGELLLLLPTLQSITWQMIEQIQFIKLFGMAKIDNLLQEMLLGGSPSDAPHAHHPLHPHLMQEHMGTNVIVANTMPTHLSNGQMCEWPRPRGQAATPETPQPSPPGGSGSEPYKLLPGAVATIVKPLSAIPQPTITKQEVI
UCH37 DUB inh: blocks the human deubiquitinase UCH37 | Q9Y5K5 | purified proteasome/UCH37, Ub-AMC cleavage fluorescence | inhibition, % (no concentration beside the values) | 330,000 tested, 0.33% active;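 active means mean of two replicates above 20%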;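 further: 0% = compound-free wells with enzyme and 100% = wells lacking proteasome; stock transfer was 100 nL into about 20 µL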
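Assay system: Proteasome-bound UCH37. Buffer or medium: pH 7.4 Tris-HCl (50 mM) with ovalbumin, ATP-MgCl2, DTT. Incubation: 30 min preincubation with enzyme, 25 min cleavage at room temperature. Measured by: fluorescence, ex 355 nm, em 460 nm. Read-out basis: percent inhibition. Control set: wells without proteasome as full block, compound-free enzyme plus substrate as uninhibited.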
Ecoli growth: inhibitors of Escherichia coli growth; OD600 absorbance (test concentration not listed); OD600, 23 h; stronger effect = lower value; AID 1053175; 330,000 tested, 0.21% active;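 active means OD600 absorbance below the run mean of sample wells minus 3.6 SD, in any replicate, cut at about 0.56 in these data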;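 further: stock transfer was 300 nL into about 60 µL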
Vif TR-FRET: HIV-1 Vif–A3G interaction blockers – biochemical, TR-FRET, GST-Vif 1-94, biotin-A3G peptide, dose response retest, primary screen (AID 1117319); TR-FRET GST-Vif / biotin-A3G peptide binding; higher % means a stronger effect; test concentration not given here; strong numbers were not always called active; one-dose inhibition, %; IC50 in µM for titrated hits; 260,000 tested, 0.57% active;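 active means above the screen mean plus three standard deviations and confirmed in dose response; inconclusive means results disagree or hit not tested in dose response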;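 further: Vif residues 1-94 fused to GST binding biotinylated APOBEC3G peptide 110-148; 0% = full assay without inhibitor and 100% = GST in place of GST-Vif; retest series ran down from 100 µM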
FGF22 binding: FGF22 (human) thermal shift binding; calls only at 9.99 µM; AID 651658; recombinant FGF22 thermal shift, SYPRO orange fluorescence; percent of sucrose octasulfate shift, DMSO zero; 340,000 tested, 1.5% active; Q9HCT0;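 active means melting point raised past a set limit in the mean and every replicate; inconclusive means no clear call; three in four hits are not shown here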
RanGTP-Imp inh: disruptors of Ran-importin-beta complex formation – biochemical, FRET, CFP-Ran, YFP-importin-beta, homogeneous, primary screen; cell-free CFP-Ran/YFP-importin-beta FRET ratio; inhibition, % (no concentration beside the values); 300,000 tested, 1.1% active;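 active means most replicates above 15%; inconclusive means exactly half above 15%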;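 further: 0% = DMSO wells and 100% = Ran loaded with GDP instead of GTP; wells of about 40 µL received 100 nL stock; the first replicate is given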
Numbers without * were called inactive; i = inactive; ? = inconclusive; . = not tested or not shown; & = joins results of further samples. Only part of the results is shown. The share of hits here may be higher or lower than overall.

AF4-AF9 inh	HNF4A DNA FP	UCH37 DUB inh	Ecoli growth	Vif TR-FRET	FGF22 binding	RanGTP-Imp inh	mol
5.0	6.4	-0.5	0.69	2%	i	5.1	CCN1CCN(c2ccc(S(=O)(=O)N3CCCCC3)cc2NC(=O)Cc2c(F)cccc2Cl)CC1
2.0	0.9	0.9	0.67	1%	i	-4.8	O=C(CN1CCN(c2ccccc2O)CC1)NCCCc1ccccc1
-0.9	1.2	-0.5	0.69	-5%	i	-1.4	CC(C)CCNC(=O)C(C)N(Cc1ccc(F)cc1)C(=O)c1ccc(CN2CCOCC2)o1 (stereo unspecified)
.	2.4	2.4	0.79	3%	.	0.2	Cc1ccc(S(=O)(=O)NC(CC(=O)N2CCOCC2)c2ccco2)cc1 (stereo unspecified)
0.0	2.0	0.7	0.69	.	i	7.1	O=C(O)C1CCN(S(=O)(=O)c2ccc(N3CCC(O)CC3)c([N+](=O)[O-])c2)CC1
.	5.3	-5.0	0.73	?	.	3.0	O=C1CC(c2ccc(F)cc2)C2=C(CCCC2=O)N1 (stereo unspecified)
-3.0	0.5	1.5	0.68	.	i	7.4	Cc1nnc(SCC(=O)N2CC(C)OC(C)C2)n1-c1ccccc1 (stereo unspecified)
.	-0.3	2.4	0.61	-3%	.	-4.3	CS(=O)(=O)N(CC(=O)NC1CCCC1)c1cccc(F)c1
.	-1.2	.	.	22%	.	-2.3	O=C(Cc1ccccc1)N/N=C/c1ccc(Cl)cc1Cl
.	-1.3	-0.5	0.69	2%	.	1.3	CCN(CC)CCCOc1ccc(Cl)c(Cl)c1
-1.6	-2.8	0.2	0.68	-2%	i	.	Cc1cccc(NC(=O)COC(=O)CSc2ccccc2)c1C
.	-6.9	-2.0	0.68	-2%	.	5.2	CC(NC(=O)Cn1nc(C(F)(F)F)c2c1CCC2)c1ccccc1 (stereo unspecified)
.	-3.5	2.4	0.7	8%	.	1.9	COc1ccc(CCNC(=O)CCC(=O)N2CCN(S(=O)(=O)c3ccc(Cl)cc3)CC2)cc1OC
?	0.3	.	.	.	i	3.0	COC(=O)Cn1cc(/C=N/NC(=O)COc2cccc3cccnc23)c2ccccc21
.	20	3.4	0.7	10%	.	.	O=C(COC(=O)c1ccc(NS(=O)(=O)c2cccs2)cc1)Nc1nc2c(F)c(F)c(F)cc2s1
-0.7	0.0	1.2	0.69	0%	i	0.7	CCN(CC)S(=O)(=O)c1cccc(C(=O)OCC(=O)NCc2ccccc2OC)c1
0.7	-0.7	-253	0.61	2%	i	.	NC(=O)COc1ccc2c3c(c(=O)oc2c1)CCCCC3
0.2	-3.2	0.6	0.74	.	i	3.7	COc1ccc(Cl)cc1S(=O)(=O)N1CCC(C(=O)NC2CCCC2)CC1
-5.1	-2.5	5.3	0.66	-4%	i	.	CC(=O)N1CCN(C(=O)c2ccc(S(=O)(=O)Nc3cccc(C(F)(F)F)c3)cc2)CC1
-2.6	-3.1	0.6	0.67	-11%	i	.	CCN1CCN(S(=O)(=O)c2ccc(Cl)c(C(=O)NC3CC3)c2)CC1
-14	4.5	3.7	0.71	-8%	i	-1.3	Cc1ccc(S(=O)(=O)NCC(c2ccc3c(c2)OCO3)N2CCOCC2)cc1 (stereo unspecified)
-4.9	-1.0	.	.	.	i	.	O=C1O[C@H](CO)[C@@H](O)[C@H](O)[C@H]1O
.	-2.9	2.2	0.68	?	.	-0.6	Cc1cccc(N(CC(O)CON=C2c3ccccc3-c3ccccc32)S(C)(=O)=O)c1 (stereo unspecified)
.	-0.1	0.8	0.73	0%	.	0.7	CCN(CC)C(=O)c1ccc(COc2ccccc2Cl)cc1
.	8.3	5.7	0.66	-1%&0%	.	0.5	COc1ccccc1CNC(=O)[C@@H]1CCCN1C(=O)C1CCN(S(=O)(=O)c2ccc(C)cc2)CC1
0.6	5.6	-1.6	0.68	.	i	3.1	COc1ccc(S(=O)(=O)N2CCCOC2CNC(=O)C(=O)NCCCN2CCOCC2)cc1C (stereo unspecified)
-2.8	-0.3	-1.4	0.71	.	.	-1.0	CCOc1ccc(C(CC(=O)O)NC(=O)c2sc3ccccc3c2Cl)cc1 (stereo unspecified)
-2.7	-2.7	0.4	0.69	-5%	i	-11	CCOc1ccc(NC(=O)Cn2ncc3ccccc32)cc1
11	-1.1	1.9	0.71	-1%	i	0.4	Cc1ccc(S(=O)(=O)NCCC(=O)N2CCCCCCC2)cc1C
-2.5	0.1	3.0	0.7	-1%	i	.	CCN(CC(=O)Nc1ccc(OC)cc1)C(=O)c1ccc(N2C(=O)CCC2=O)cc1

Four entries out of the list, ordered by length of the SMILES, rising.
AF4-AF9 inh	HNF4A DNA FP	UCH37 DUB inh	Ecoli growth	Vif TR-FRET	FGF22 binding	RanGTP-Imp inh	mol
11	-1.1	1.9	0.71	-1%	i	0.4	Cc1ccc(S(=O)(=O)NCCC(=O)N2CCCCCCC2)cc1C
-2.8	-0.3	-1.4	0.71	.	.	-1.0	CCOc1ccc(C(CC(=O)O)NC(=O)c2sc3ccccc3c2Cl)cc1 (stereo unspecified)
-14	4.5	3.7	0.71	-8%	i	-1.3	Cc1ccc(S(=O)(=O)NCC(c2ccc3c(c2)OCO3)N2CCOCC2)cc1 (stereo unspecified)
-2.5	0.1	3.0	0.7	-1%	i	.	CCN(CC(=O)Nc1ccc(OC)cc1)C(=O)c1ccc(N2C(=O)CCC2=O)cc1

(next part)
AF4-AF9 inh	HNF4A DNA FP	UCH37 DUB inh	Ecoli growth	Vif TR-FRET	FGF22 binding	RanGTP-Imp inh	mol
.	18	-4.0	0.77	-1%	.	?	COc1ccccc1C(=O)N/C(N)=N/c1nc2ccccc2o1
.	0.1	-2.2	0.7	7%	.	2.1	CSc1nc2nc3c(c(=O)n2[nH]1)CCCC3
12	3.2	2.4	0.66	8%	i	1.3	CC(=O)c1c(N2CCN(Cc3ccc4c(c3)OCO4)CC2)nc(=S)n(-c2ccccc2)c1C
.	0.8	11	0.68	2%	.	7.5	COc1ccc(Nc2cccccc2=O)cc1
-1.6	-1.4	.	.	5%	i	2.3	COc1cc(/C=N/NC(=O)c2ccc(N3CCCC3=O)cc2)ccc1O
-0.8	-2.3	3.8	0.68	20%	i	.	O=C(O)/C(=C/c1ccc(Cl)c([N+](=O)[O-])c1)c1ccc(S(=O)(=O)N2CCCCC2)s1
-1.7	-0.4	2.1	0.66	-2%	i	2.8	Cc1ccccc1CN(C)CC(=O)NC(C)CCc1ccccc1 (stereo unspecified)
.	4.0	5.2	0.72	2%	.	3.5	O=C(C1CC1)N1CCc2cc(Br)cc(S(=O)(=O)NCc3ccccn3)c21
3.0	-2.3	4.6	0.71	4%	i	0.7	CCOC(=O)C1CCN(c2ncnc3c2c(-c2ccccc2)cn3-c2ccc(C)cc2)CC1
.	4.0	0.2	0.71	1%	.	6.7	Cn1c(N2CCCCC2)cc(=O)n(C)c1=O
-8.6	-1.6	.	.	-6%	i	.	Cc1ccc([C@@H]2C[C@H]3[C@@H](CN2S(=O)(=O)c2ccc(Cl)cc2)C(=O)C[C@@H](c2cccc(Cl)c2)N3S(=O)(=O)c2ccc(C)cc2)cc1
-20	-3.9	1.9	0.68	10%	i	.	Cc1ccc(C(=O)NCC(=O)N2CCCN(S(=O)(=O)c3ccc(C)cc3)CC2)cc1
2.2	0.4	4.7	0.7	9%	i	2.2	CCOC(=O)C1=C(C)Nc2ncnn2C1c1ccc2c(c1)OCO2 (stereo unspecified)
9.2	-1.2	5.1	0.58	4%	i	-1.4	Brc1ccc(CNc2nc3ccccc3n2CCN2CCCCC2)cc1
.	-2.0	1.7	0.7	3%	.	-1.4	Cc1ccccc1N1C(=O)C2C3CC(=O)C(c4ccccc43)C2C1=O (stereo unspecified)
3.2	2.0	0.1	0.72	0%	i	0.0	Cc1nn(C(C)C(=O)Nc2ccc(Cl)cn2)c(C)c1[N+](=O)[O-] (stereo unspecified)
-0.4	-0.2	4.0	0.68	.	i	-0.7	COc1ccc(CNS(=O)(=O)c2cc(-c3cc(C)no3)ccc2C(C)C)cc1
1.8	-2.1	6.8	0.68	.	i	2.6	Cc1ccccc1OC(C)C(=O)Nc1ccc(S(=O)(=O)Nc2nccs2)cc1 (stereo unspecified)
-3.6	5.5	.	.	.	i	.	CCc1nc2ccc(C(=O)Nc3cccc(OC)c3)cn2c1N(CC)CCN(C)C
1.6	-2.8	2.3	0.72	.	i	2.8	COc1ccccc1C(=O)N(C1=NC(C)CS1)c1ccc(Cl)cc1 (stereo unspecified)
-2.8	-1.1	2.6	0.69	1%	i	-0.6	O=S(=O)(NC1=NCCCCC1)c1ccccc1Cl
1.2	-2.5	-4.7	0.63	4%	i	4.8	NC(=O)COC(=O)c1ccc(C(=O)C(=O)c2ccccc2)cc1
-2.4	0.0	2.3	0.7	.	i	-1.6	Cc1ccc(C(C(=O)NC2CCCC2)N(C(=O)CNC(=O)c2ccco2)c2ccccc2)o1 (stereo unspecified)
.	-1.0	-3.2	0.75	-8%	.	-1.1	Brc1ccc(-c2csc(-c3c[nH]c4ccccc34)n2)cc1
.	2.7	2.5	0.74	2%	.	29*	CC1(C)CC(=O)CC(=Nc2ccc3[nH]c(=O)[nH]c3c2)C1
4.4	0.0	4.0	0.69	6%	i	?	O=C(CCN1C(=O)/C(=C/c2cccs2)SC1=S)Nc1cccc(O)c1
4.3	-0.8	1.0	0.65	.	i	6.1	CC(C)=CCCC(C)CN1CCC(N2CCC(C(=O)NC(C)C)CC2)CC1 (stereo unspecified)
1.0	-0.7	1.3	0.72	6%	i	0.3	COc1ccccc1NC(=O)Cn1ncc2c1-c1ccccc1OC2
1.0	1.5	1.4	0.7	-10%	i	-1.2	CCOC(=O)COc1ccc2c(c1)c(C(C)=O)c(C)n2-c1ccccc1
1.8	-4.0	0.3	0.7	12%	i	-1.8	O=C(CCC1CCCN(c2ncccn2)C1)N1CCN(c2ccccn2)CC1 (stereo unspecified)
.	0.8	15	0.72	7%	.	-2.6	CC(=O)N(Cc1ccc(F)cc1)C1=C(NCc2ccccc2)C(=O)c2ccccc2C1=O
-0.3	-1.3	0.8	0.71	0%	.	0.4	CC(=O)c1cc(CN2CCN(Cc3ccccc3)C(CCO)C2)cs1 (stereo unspecified)
4.1	2.8	-1.3	0.65	2%	.	3.0	COc1ccc(OC)c(-c2csc(NC(=O)C3=COCCO3)n2)c1
.	1.9	1.8	0.68	29%	.	3.6	Cn1nccc1C(=O)Nn1cnnc1
0.4	-17	-36	0.66	.	i	-43	Cc1nnc(N2C(=O)c3cccc4c([N+](=O)[O-])ccc(c34)C2=O)s1
2.1	4.5	3.4	0.71	-10%	i	-6.4	COc1ccc(CC(=O)O/N=C(\N)c2ccncc2)cc1
-2.4	4.1	-2.4	0.73	.	i	?	Cc1ccccc1CSc1nnc(C)c(=O)n1N
1.0	2.7	2.8	0.75	1%	i	0.1	O=C(CSc1cn(CCNC(=O)c2cccs2)c2ccccc12)NC1CCCC1
.	-0.1	3.6	0.7	.	.	1.2	CC1C=CCC2C(=O)N(c3ccc(Cl)cc3O)C(=O)C12 (stereo unspecified)
2.3	0.1	1.8	0.63	?	i	-1.4	CCN1CCN(C(=O)c2ccc(CS(=O)(=O)Cc3ccccc3F)o2)CC1
.	3.4	-0.1	0.73	-4%	.	-0.8	CCOC(=O)C(C)(C)C(=O)C(C)(C)C(O)c1ccccn1 (stereo unspecified)
.	0.8	3.3	0.69	20%&-7%	.	-4.1	CCOC(=O)N1CCC(n2c(SCC(=O)Nc3nccs3)nc3ccsc3c2=O)CC1
-2.3	2.5	3.1	0.7	.	i	?	CCCCCCn1cnc2c(oc3nc4c(cc32)CCCC4)c1=O
.	-4.3	1.4	0.66	21%	.	0.3	Cn1c(CN2CCOCC2)c(C#N)c2ccccc21
